RanGTP-Imp inh – inhibitors of RanGTP-importin-beta interaction, primary screen, biochemical, FRET, CFP-Ran, YFP-importin-beta, homogeneous; 300,000 tested, 1.1% active; cell-free CFP-Ran/YFP-importin-beta FRET ratio; inhibition, % (no concentration beside the values);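 active means most replicates above 15%; inconclusive means exactly half above 15%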;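 further: 0% = DMSO wells and 100% = Ran loaded with GDP instead of GTP; wells of about 40 µL received 100 nL stock; the first replicate is given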
Bfl-1 A1 inh – inhibitors of the anti-apoptotic protein A1, read as caspase activation | MEF A1-2A-BIM cells, Caspase-Glo 3/7 luminescence, 3 h; percent of clofoctol response, vehicle zero | caspase activation, % (concentration not given with the values) | 330,000 tested, 0.066% active;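 active means over half of replicate activation scores above 10%, or exactly half above 10 with the replicate mean above 10; inconclusive means replicate mean below 10 yet half the replicates above 10; inactive means over half of replicates below 10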;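 further: wells of about 30 µL received 50 nL stock; many hits fall short of the cut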
LANA-H2A inh – blocks KSHV LANA binding to histone H2A/H2B; 320,000 tested, 0.6% active; inhibition, % (concentration not given with the values); Q9QR71; cell-free LANA-H2A/H2B peptide, fluorescence polarization; in the data active means inhibition mostly above about 10%, no sharp cut-off; inactive means mostly below about 6.7%;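 further: stock transfer was 7.5 nL into about 10 µL; 0% = median of vehicle wells and 100% = median of positive control wells; one replicate is shown; the record names a cut of 25% in any replicate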
Beta apoptosis – beta cell apoptosis inhibition. INS-1E cytokine-induced death, ATP luminescence, 48 h; percent of positive-control rescue, neutral wells zero. protection from apoptosis, % (no concentration beside the values). 300,000 tested, 0.8% active. AID 435005;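 active means all replicates at 75% or more, or half of them and the mean; inconclusive means half reach 75% but not the mean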;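 further: 0% = cytokine-treated negative control wells and 100% = positive control rescue; higher means more ATP so stronger rescue from cytokine killing; wells of about 40 µL received 100 nL stock; the first replicate is given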
Calb FLC – affects C. albicans growth with fluconazole. C. albicans CaCi-2 (fluconazole-resistant clinical isolate) + fluconazole, Alamar Blue growth, 48 h. 300,000 tested, 0.57% active. growth inhibition, % (no concentration beside the values);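 active means most replicates above 75%; inconclusive means exactly half above 75%; inactive means most below 75%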;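 further: all wells also contain fluconazole at 8 µg/ml as a sub-toxic cotreatment; 0% = median of DMSO wells and 100% = median of geldanamycin control wells; wells of about 8 µL received 7.5 nL stock; the first replicate is given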
UCH37 DUB inh – blocks the human deubiquitinase UCH37; Q9Y5K5; purified proteasome/UCH37, Ub-AMC cleavage fluorescence; inhibition, % (concentration not given with the values); 330,000 tested, 0.33% active;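 active means mean of two replicates above 20%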;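 further: 0% = compound-free wells with enzyme and 100% = wells lacking proteasome; stock transfer was 100 nL into about 20 µL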
Target sequence (Q9Y5K5 whole entry, looked up): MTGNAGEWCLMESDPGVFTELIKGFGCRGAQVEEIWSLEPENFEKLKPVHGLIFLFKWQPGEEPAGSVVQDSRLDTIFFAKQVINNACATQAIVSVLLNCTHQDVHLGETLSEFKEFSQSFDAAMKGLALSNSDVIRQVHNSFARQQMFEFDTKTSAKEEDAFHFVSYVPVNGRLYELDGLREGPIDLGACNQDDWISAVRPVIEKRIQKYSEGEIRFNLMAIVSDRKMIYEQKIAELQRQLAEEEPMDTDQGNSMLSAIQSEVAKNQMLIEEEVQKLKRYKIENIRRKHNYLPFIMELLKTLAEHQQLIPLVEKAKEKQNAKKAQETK
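Signal – fluorescence, ex 355 nm, em 460 nm · System – Proteasome-bound UCH37 · Input – 0.15 nM proteasome as dispensed · Timing – 30 min preincubation with enzyme, 25 min cleavage at room temperature · Read-out basis – percent inhibition of cleavage signal versus uninhibited and no-proteasome wells · Medium – Tris-HCl pH 7.4 with ATP-MgCl2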
T cruzi inh – T. cruzi replication inhibition | T. cruzi beta-gal in NIH3T3, luminescence, 90 h | inhibition, % (concentration not given with the values) | 300,000 tested, 1.4% active | AID 1885;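 active means mean inhibition across valid replicates above about 55%, limit read from the data; inconclusive means mean below that limit but half or more replicates reach it; inactive means mean below it, under half of replicates reach it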;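 further: signal also drops with host cell toxicity which is not excluded here; 0% = plate median of DMSO wells and 100% = zero luminescence signal; higher percent means less beta-gal luminescence so fewer parasites; stock transfer was 50 nL into about 50 µL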
Beta2AR agonist – agonists of human beta-2 adrenergic receptor inducing internalization. P07550. Am2.2-beta2AR cells, FAP receptor internalization, flow cytometry; reference of the scale not given here. response, % (test concentration not listed). 340,000 tested, 0.43% active;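 active means response above a set limit, near 3 SD of response in nonfluorescent compounds, cut at about 42% in these data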;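 further: stock transfer was 100 nL into about 11 µL; a reference agonist was the positive control; negative values mostly stem from fluorescent compounds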
Target sequence (P07550 whole entry, looked up): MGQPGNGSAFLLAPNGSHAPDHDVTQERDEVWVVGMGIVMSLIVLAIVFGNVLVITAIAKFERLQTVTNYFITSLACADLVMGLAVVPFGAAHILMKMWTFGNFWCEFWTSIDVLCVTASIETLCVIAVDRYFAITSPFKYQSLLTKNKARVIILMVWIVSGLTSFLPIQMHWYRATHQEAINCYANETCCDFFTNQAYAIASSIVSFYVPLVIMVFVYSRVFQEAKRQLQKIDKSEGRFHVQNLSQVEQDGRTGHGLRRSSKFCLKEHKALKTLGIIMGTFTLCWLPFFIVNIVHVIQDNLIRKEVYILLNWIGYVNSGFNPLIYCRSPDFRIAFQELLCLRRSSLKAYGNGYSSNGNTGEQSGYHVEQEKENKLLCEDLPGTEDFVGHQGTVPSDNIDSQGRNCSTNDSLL
Numbers without * were called inactive; i = inactive; ? = inconclusive; nt = not tested or not shown.

SMILES | RanGTP-Imp inh | Bfl-1 A1 inh | LANA-H2A inh | Beta apoptosis | Calb FLC | UCH37 DUB inh | T cruzi inh | Beta2AR agonist
Cc1ccc2nc(NC(=O)CSCC(=O)Nc3cc(C)on3)sc2c1 | nt | -4.7 | nt | 6 | nt | 2.0 | nt | 3
OCc1nc2ccccc2n1CCc1ccccc1 | 3.1 | 0.4 | -6.8 | nt | 35 | 3.0 | -11 | 6
CC(=O)c1ccc(OCc2cc(C(=O)N3CCN(c4ccccc4)CC3C)no2)cc1 (configuration not stated) | 4.2 | -7.7 | 1.5 | -3 | -2 | 1.2 | 14 | -6
O=C1C(Cc2ccccc2)Nc2ncnc(N3CCCCC3)c2N1Cc1ccc(Cl)cc1 (configuration not stated) | -0.2 | 1.1 | 6.6 | nt | -1 | -1.5 | 33 | 5
CCCCOc1ncnc2c1[nH]c1ccc(OCC)cc12 | -0.1 | 0.2 | -1.7 | 9 | 66 | -18 | 11 | 0
COc1ccccc1-c1cn[nH]c(=S)n1 | -1.3 | -0.3 | 1.1 | -7 | 11 | 4.5 | -4 | 4
COc1ccc(/C=C/c2nnc(NC(=O)COc3cccc(C)c3)s2)cc1 | 5.6 | 0.0 | 8.0 | -9 | 20 | i | 0 | 2
O=C(CSc1ccccc1)NCCc1ccccc1 | 0.9 | 0.0 | 1.1 | -1 | 5 | 2.1 | -18 | -6
CCOc1ccc(OCCCC(=O)NCCc2ccc(OC)cc2)cc1 | 2.6 | 0.1 | 11* | -11 | 20 | -2.0 | -14 | 3
CCn1nnnc1SCC(=O)N1c2ccccc2NC(=O)CC1C (configuration not stated) | nt | 0.7 | 6.7 | -8 | nt | 0.0 | nt | 3
O=[N+]([O-])c1ccc(Sc2ccccc2Cl)nc1 | -1.7 | -0.3 | -4.8 | -14 | 12 | 6.1 | 5 | 0
NC(=O)[C@H]1CC2(CC(c3cccc(NC(=O)COc4ccc(Cl)cc4)c3)=NO2)CN1C(=O)Cc1ccc([N+](=O)[O-])cc1 (some centres not stated) | 0.3 | 0.2 | 3.9 | 10 | 15 | 5.4 | 19 | 0
CCOc1ccccc1NC(=O)Nc1cccc(S(N)(=O)=O)c1 | -1.1 | 1.1 | 1.4 | -2 | 12 | 2.5 | -3 | 4
COCCn1c(N)c(NCc2ccccc2)c(=O)n(CC(=O)Nc2cc(C)ccc2C)c1=O | 5.1 | -0.4 | -1.8 | -1 | 7 | -0.2 | -14 | 1
COc1cccc(OC)c1C(=O)Nc1ccncc1 | -3.9 | 0.2 | -1.2 | -2 | -1 | 4.9 | -3 | 12
O=C(NCc1ccccc1F)C(=O)NCC1OCCCN1S(=O)(=O)c1cccs1 (configuration not stated) | 2.2 | 2.7 | -1.2 | 1 | 6 | 3.9 | 7 | 0
COc1cccc2c1c(NC(=O)c1cc(C)on1)nn2C | 1.8 | 0.5 | -2.8 | -1 | -1 | 4.2 | 8 | 0
Cc1nn(C)c(C(=O)NNC(=S)Nc2ccc(Cl)cc2)c1[N+](=O)[O-] | -0.2 | 0.1 | -5.5 | 3 | 12 | 4.1 | 2 | 6
Cc1c(NS(=O)(=O)c2cc(C(=O)NCC3CCCO3)cc(Cl)c2Cl)c(=O)n(-c2ccccc2)n1C (configuration not stated) | 5.4 | 1.5 | 1.0 | 0 | -2 | 2.7 | 4 | 5
CC1CCCCN1S(=O)(=O)c1ccc(S(=O)(=O)N(CC(=O)Nc2ccccc2)Cc2cccs2)cc1 (configuration not stated) | 1.2 | 0.3 | 7.6 | 12 | -35 | -1.0 | 57* | 3

Exported as labelled records: 4 of the compounds above
smiles: COCCn1c(N)c(NCc2ccccc2)c(=O)n(CC(=O)Nc2cc(C)ccc2C)c1=O
  RanGTP-Imp inh: 5.1	Bfl-1 A1 inh: -0.4	LANA-H2A inh: -1.8	Beta apoptosis: -1	Calb FLC: 7	UCH37 DUB inh: -0.2	T cruzi inh: -14	Beta2AR agonist: 1
smiles: COc1cccc(OC)c1C(=O)Nc1ccncc1
  RanGTP-Imp inh: -3.9	Bfl-1 A1 inh: 0.2	LANA-H2A inh: -1.2	Beta apoptosis: -2	Calb FLC: -1	UCH37 DUB inh: 4.9	T cruzi inh: -3	Beta2AR agonist: 12
smiles: O=C(NCc1ccccc1F)C(=O)NCC1OCCCN1S(=O)(=O)c1cccs1 (configuration not stated)
  RanGTP-Imp inh: 2.2	Bfl-1 A1 inh: 2.7	LANA-H2A inh: -1.2	Beta apoptosis: 1	Calb FLC: 6	UCH37 DUB inh: 3.9	T cruzi inh: 7	Beta2AR agonist: 0
smiles: COc1cccc2c1c(NC(=O)c1cc(C)on1)nn2C
  RanGTP-Imp inh: 1.8	Bfl-1 A1 inh: 0.5	LANA-H2A inh: -2.8	Beta apoptosis: -1	Calb FLC: -1	UCH37 DUB inh: 4.2	T cruzi inh: 8	Beta2AR agonist: 0

(further entries)
SMILES | RanGTP-Imp inh | Bfl-1 A1 inh | LANA-H2A inh | Beta apoptosis | Calb FLC | UCH37 DUB inh | T cruzi inh | Beta2AR agonist
Nc1c(C(=O)Nc2ccccc2)c2nc3ccccc3nc2n1CCCN1CCOCC1 | 28* | -0.2 | -4.5 | 2 | 16 | -26 | 27 | 18
O=C1CCCc2oc3c(cc(NS(=O)(=O)c4ccc5c6c(cccc46)C(=O)N5)c4ccccc43)c21 | 6.7 | 0.7 | 4.2 | 15 | 36 | -26 | 30 | -15
COc1ccccc1N/N=C/c1ccc2c(c1)OCO2 | -2.3 | -1.3 | 2.3 | 4 | -16 | nt | 17 | -1
CCN(c1ccccc1)S(=O)(=O)c1ccc2c(c1)CC(C)N2C(=O)C1CC1 (configuration not stated) | 1.0 | -0.6 | 3.1 | 4 | -8 | 0.6 | 9 | 10
CC1(c2nnc(-c3cccc(Cl)c3)o2)CC(c2ccc(Cl)cc2)=NO1 (configuration not stated) | 0.4 | -1.8 | -3.5 | -1 | -4 | 4.1 | -13 | 1
C/C(=N/NC(=O)CNc1ccc(C)cc1)c1ccc(Br)s1 | 4.8 | -0.1 | -3.0 | 0 | -6 | nt | -3 | -4
COC(=O)C(C)n1cnc2c(cnn2-c2ccc(Cl)cc2)c1=O (configuration not stated) | -2.5 | 0.7 | -1.7 | -1 | ? | 30* | -7 | 13
Cc1cc(C(C)(C)C)cc(S(=O)(=O)Nc2cccc(C(=O)O)c2)c1C | -1.4 | 0.0 | 2.9 | -3 | 0 | 5.1 | -7 | 11
COc1ccc(NC(=O)CNC(=O)Cc2cccc3ccccc23)cc1 | nt | 1.5 | -2.0 | 0 | nt | 0.6 | nt | -1
Cc1ccc(CN(C)C(=O)c2ccccc2Oc2ccccc2)o1 | 1.2 | -0.7 | 2.4 | -21 | 26 | 2.6 | -20 | 1
CCOC(=O)C1(CCOC)CCN(C/C=C/c2ccccc2OC)CC1 | 1.1 | 1.4 | 0.8 | 19 | -3 | nt | -5 | 2
Cc1ccc(C2=NN(C(=O)CN3C(=O)c4ccccc4S3(=O)=O)C(c3ccco3)C2)cc1 (configuration not stated) | 3.3 | -1.0 | 2.1 | 4 | -12 | 1.0 | 11 | 11
Cc1ccc(/C=C2\SC(N3CCN(C(c4ccccc4)c4ccccc4)CC3)=NC2=O)o1 | 6.9 | 1.9 | -5.4 | 2 | 48 | 6.1 | 3 | 16
Cc1cccc(Oc2coc3cc(OC(=O)c4cc5ccccc5oc4=O)ccc3c2=O)c1 | -0.5 | 0.3 | -2.2 | 1 | 16 | -14 | -28 | -1
Cc1ccccc1C(=O)Nn1cnnc1 | 1.4 | 0.5 | 3.3 | 2 | -2 | 0.6 | -6 | 1
O=C(c1cc(-c2ccc(Cl)cc2)on1)N1CCN(c2ccc(F)cc2)CC1 | -0.2 | 0.2 | 1.7 | 0 | -2 | 0.9 | -4 | 1
CC(=O)NC12CC3CC(C1)CC(C(=O)Nc1nccs1)(C3)C2 | -0.6 | -0.2 | -1.8 | 3 | 3 | 2.1 | 0 | 6
Oc1ccc(Cl)cc1-c1cc(-c2cccc(Br)c2)n[nH]1 | -4.7 | 0.2 | 1.0 | 18 | -7 | -2.0 | -13 | 9
O=C(O)CCC(=O)NNC(=O)c1cccc(Cl)c1 | 0.6 | -0.3 | -0.5 | -1 | -1 | 5.2 | -16 | 11
COc1ccc(/C=N/NC(=O)c2ccc(Br)cc2)cc1CN1CCOCC1 | 3.3 | 0.1 | -1.8 | 2 | -13 | nt | 8 | 9
COCCCN1C(=O)C(=O)/C(=C(/O)c2ccc(OC)cc2)C1c1ccc(O)c(OC)c1 (configuration not stated) | -1.1 | 0.4 | -3.2 | -5 | -10 | 3.9 | -4 | 3
Cc1ccc(N2C(=N)SCC2=O)cc1Cl | -2.2 | 0.2 | 3.2 | -1 | 14 | 6.1 | -17 | 6
O=S1(=O)N=C(Nc2nc3c(s2)CCCC3)c2ccccc21 | nt | -7.2 | 2.0 | 15 | nt | 2.5 | nt | 21
COc1ccc(NC(=O)CSc2nnc(CNC(=O)c3ccco3)o2)cc1 | -0.7 | 0.4 | -3.9 | -6 | -1 | 0.3 | -15 | -1
COc1ccccc1-n1c(SCC(N)=O)nnc1-c1ccccc1 | -0.5 | 0.0 | -1.4 | nt | 2 | 4.1 | -11 | 9
COC(=O)c1ccc2nc(NC(=O)CCS(=O)(=O)c3ccccc3)sc2c1 | -0.8 | -0.7 | 3.7 | -8 | 67 | -1.6 | 14 | 6
CCc1cc(CNC(=O)c2cccc(OC3CCN(S(C)(=O)=O)CC3)c2)on1 | -0.2 | 0.5 | 1.3 | -19 | -8 | 1.7 | 3 | 6
O=C1c2ccc(-c3nc4ccccc4o3)cc2C(=O)N1Cc1cccnc1 | 4.4 | -1.0 | -2.7 | -2 | 21 | -16 | -27 | nt
CCOc1ccc(NC(=O)c2ccccc2NC(=O)CN(C)CC(=O)Nc2ccc(C)cc2)cc1 | 1.0 | 0.0 | 0.4 | nt | 15 | 1.5 | 32 | -5
O=c1[nH]c(CSc2nnc(-c3ccncc3)n2Cc2ccco2)nc2ccccc12 | -0.4 | 0.5 | -2.2 | -4 | 13 | 6.2 | 6 | -7
CSc1ccc(C(=O)C2CCCN(Cc3ccc(N4CCNC4=O)cc3)C2)cc1 (configuration not stated) | 6.5 | 0.9 | 5.1 | 0 | -64 | 1.9 | 44 | -11
CC(C)OC(=O)/C(=C/c1ccc2c(c1)c1ccccc1n2C)NC(=O)c1ccccc1 | -3.0 | 0.8 | 2.5 | -6 | -6 | -11 | 19 | 9
COc1ccccc1C(CNC(=O)C(C)(C)Oc1ccc(Cl)cc1)N1CCCC1 (configuration not stated) | 2.1 | 0.0 | 1.2 | -15 | -3 | 1.3 | 3 | 2
O=S(=O)(Nc1ccc(S(=O)(=O)Nc2cccc3ccccc23)cc1)c1ccccc1 | ? | 0.7 | 6.1 | 2 | ? | 0.3 | 5 | 7
COc1ccccc1CNC(=O)CSc1ccc(C(=O)Nc2ccccc2OC)cc1[N+](=O)[O-] | 4.2 | -0.8 | 3.4 | 0 | 34 | 3.9 | 14 | -12
CCCc1nc(SCC(=O)NC2CC2)c2c(C)c(C)sc2n1 | -0.2 | 0.5 | -1.5 | 3 | 20 | 1.7 | 8 | -16
CC(C)(C)N(Cc1ccccc1)C(=O)COC(=O)CSc1ccc([N+](=O)[O-])cc1 | -6.9 | -0.3 | -3.3 | -6 | -3 | 0.4 | -6 | 0

Screening results from PubChem BioAssay.
